# Bioassay records (PubChem BioAssay)
# NPYLR7 ag = mosquito NPYLR7 agonism | HEK293T NPYLR7/Galpha15, GCaMP6s calcium fluorescence | AID 1259423 | activation, % at 10 µM | hit rate 0.15% among 270,000; in the data active = activation above about 40%;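 note: 0% = vehicle and 100% = reference agonist at the receptor; some compounds past the cut are filed as inactive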
# NPYLR7 ag max-min = further read-out of NPYLR7 ag, marked with its call; activation, %; measured here: Max-Min RFU normalised activation; some inactives read as strong as hits;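 span of the calcium signal over five minutes; 0% = vehicle and 100% = native peptide agonist; compound fluorescence can raise it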
# * = called active by the depositor. A portion of the library (hit frequency here may not be typical).
SMILES,NPYLR7 ag,NPYLR7 ag max-min
COc1ccc(S(=O)(=O)NCC2CCCN(C(=O)c3cnsn3)C2)cc1 (stereo unspecified),-4.5,-4.8
COc1ccc(-c2cc(CC(=O)N3c4ccc(F)cc4CCC3C)no2)cc1OC (stereo unspecified),1.6,2.7
CCc1nnc(CN(C)c2ncc(C)c(N(C)C)n2)o1,-1.0,2.3
CCc1nc2ccc(C(=O)Nc3ccc(NC(C)=O)cc3)cn2c1N(C)CCC(C)C,-5.2,-8.8
CC(C)CNC(CC(=O)Nc1cccnc1)C(=O)O (stereo unspecified),-1.1,-3.5
CCCC1CN(Cc2ccc3c(c2)OCO3)C(=O)c2ccc(C)nc2O1 (stereo unspecified),4.5,14.4
O=S(=O)(c1ccc(-c2ccno2)o1)N1CCC2(CCNCC2)C1,-1.8,-3.3
Cc1c(C(=O)NCc2cccc([N+](=O)[O-])c2)sc(=O)n1Cc1ccccc1F,2.7,-0.2
Oc1cccc2c(N=Cc3ccc(F)c(F)c3)cccc12,8.1,4.5
O=C(c1cccs1)N1CCOC(CCc2ccccc2)C1 (stereo unspecified),18.1,16.3
O=C(CSc1n[nH]c(-c2cccs2)n1)Nc1ccnn1C1CCCC1,7.1,6.3
CC(=O)c1c(C)[nH]c(C(=O)NC2CCN(C)CC2)c1C,28.8,25.2
Cc1cc(NC(=O)CSc2nc3ccc(N4CCCCC4)cc3c(=O)n2Cc2ccccc2)n[nH]1,-4.0,1.8
COc1ccc(CNC(=O)c2ccc(CSc3nnc4ccccn34)cc2)c(OC)c1,-9.4,-14.3
CCCCN(C)S(=O)(=O)c1ccc2c(c1)nc(SCc1cc(F)ccc1C)n2C1CCCC1,17.9,11.0
CCOC(=O)N1CCC(N2CCC3(CCNC(=O)CC3)CC2)CC1,22.9,10.2
Cc1[nH]c(-c2ccccc2)nc1C(C)N=O (stereo unspecified),-3.3,-1.6
COc1ccc(C)cc1NC(=O)C(C)n1ncccc1=O (stereo unspecified),-1.0,-1.8
O=C(c1nnc(-c2ccccc2)o1)N1CCN(C(c2ccc(Cl)cc2)c2ccc(Cl)cc2)CC1,-3.1,-1.6
CCCCn1c(=O)[nH]c(=O)c2c1nc(CCC(=O)OC)n2CC(C)C,-3.0,20.2
C=C(COC(=O)C(C)C)C1Oc2cc(C(C)=O)ccc2C1OC(=O)C(C)C (stereo unspecified),-2.3,-9.3
Nc1ncc(C(=O)N2CCC3(CCCO3)CC2)c(-c2ccccc2)n1,21.7,9.5
COCc1ccc(CNC/C=C/c2ccco2)cc1,10.0,8.8
Cc1ccc(CN2CCN(N=Cc3c(O)ccc4ccccc34)CC2)cc1,-3.8,-6.3
O=C(NCCCC(=O)N1CCN(C(=O)Nc2ccc(F)cc2)CC1)c1ccco1,9.7,5.5
O=C1NCC2(CCCN(Cc3ccc(-c4ccccc4)s3)CC2)O1 (stereo unspecified),1.5,-7.2
COc1cc(C(=O)N2CCC(Cc3ccc4c(c3)OCO4)CC2)cc(OC)c1OC,3.2,0.7
O=C(NC1Cc2ccccc2C1)c1ccc(-c2cc(-c3ccc(Cl)cc3Cl)[nH]n2)cc1,3.6,16.5
CCN(CC)C(=O)c1ccc(-n2cnc(-c3ccccc3)c2)o1,0.6,3.2
CN1C(=O)C2(CCN(C(=O)COCC3CCCCO3)CC2)c2ccccc21 (stereo unspecified),-7.4,-11.1
CC1CCCCN1CCNS(=O)(=O)c1ncn(C)c1Cl (stereo unspecified),-0.6,-1.5
CC(=O)Cn1cnc2sc3c(c2c1=O)CCC3,8.4,12.9
CCN1CCN(c2c(CN(CCCOC)C(=O)COc3ccccc3)c(C)nn2-c2ccccc2)CC1,-0.7,3.5
COc1ccc(CN2CCn3c(C)ccc3C2C)c(OC)c1OC (stereo unspecified),1.3,-4.5
CC(C)CCN(CC(=O)O)S(=O)(=O)c1cccs1,9.0,6.6
Cc1ccc(Cl)cc1N=Cc1nc(-c2ccc(Cl)cc2)oc1O,-4.7,-8.5
COC(=O)c1ccc(C(=O)N(C)Cc2cccc(Cl)c2)s1,0.6,0.1
CCOc1ccnc(N2CCN(Cc3cccc(C)c3)C(=O)C2)n1,18.3,6.1
C=CC[C@@H]1CC=C[C@@H](c2ccccc2)N1C(=O)c1coc2c1C(=O)CCC2,-3.4,-5.5
CCCC(C(=O)N1CCCn2cncc2C1)n1cccc1 (stereo unspecified),-4.6,-4.8
COc1ccccc1C(=O)NC1(C(F)(F)F)C(=O)Nc2c1c(=O)[nH]c(=O)n2CC(C)C (stereo unspecified),-9.8,-16.9
O=C(CC1CSc2nccc(=O)n21)N1CCCC1 (stereo unspecified),-1.8,-3.4
Cc1cccc(-c2nc(C)cc(N3CCN(C(=O)Nc4ccccc4Br)CC3)n2)c1,15.3,13.6
CC1CCCCN1Cc1nc2c(c(=O)n(C)c(=O)n2C)n1Cc1ccc(Cl)cc1 (stereo unspecified),-5.0,-5.9
O=c1ccc(-c2cccs2)nn1CCNS(=O)(=O)c1ccccc1Cl,4.6,2.1
O=C(C[n+]1cccc(O)c1)NCc1ccc(Cl)cc1,1.4,-9.8
Cc1cc(C)c(NC(=O)CCn2cnc3c(cnn3C)c2=O)c(C)c1,4.8,11.9
COCc1c(Br)c(C)nc(OCC(=O)N/N=C\c2cccc(O)c2)c1C#N,-7.8,-9.4
CCOCCC(=O)N1CCN(Cc2ccc(-c3noc(-c4cccs4)n3)cc2)CC1,4.7,2.7
CNC(=O)CC1CCN(CCC(C)c2ccccc2)CC1 (stereo unspecified),-2.1,-5.1
O=C(Nc1cccc(OC(F)(F)C(F)F)c1)c1sc2cc3c(cc2c1Cl)OCO3,3.3,1.1
CCOC(=O)CNc1c(-c2cccc(O)c2)nc2cccc(C)n12,-4.4,-2.8
COc1ccc(OC)c(/C=N\NC(=O)CSc2nnc(-c3ccc(OC)c(OC)c3)n2-c2ccccc2)c1,-6.5,0.3
CCc1nc2ccc(C(=O)Nc3ccc(C(N)=O)cc3)cn2c1N(CCC(C)C)CCN(C)C,-4.2,-7.8
O=C(NC12CC3CC(CC(C3)C1)C2)c1cncn1-c1ccc(F)cc1,-21.3,-25.1
CCCCCN(C(=O)Nc1ccccc1C(F)(F)F)C(CC)c1nc2ccccc2c(=O)n1-c1ccc(Br)cc1 (stereo unspecified),18.2,23.7
C=CCCC(=O)N1CCN(Cc2cc(=O)c(OCc3ccc(C(C)(C)C)cc3)co2)CC1,-2.7,0.4
COc1ccc(CN2CCN(C(C)C)CC2)cc1OCC(O)CN1CCCCCCC1 (stereo unspecified),0.8,-3.7
CCCCN(c1ccccc1)S(=O)(=O)c1cn[nH]c1,7.1,1.4
O=C(NCCCCOc1ccccc1)N1CCCC1c1ccc2c(c1)OCCCO2 (stereo unspecified),6.9,12.7

# Quoted from the entries so far for reference:
SMILES,NPYLR7 ag,NPYLR7 ag max-min
COC(=O)c1ccc(C(=O)N(C)Cc2cccc(Cl)c2)s1,0.6,0.1
CCOc1ccnc(N2CCN(Cc3cccc(C)c3)C(=O)C2)n1,18.3,6.1
C=CC[C@@H]1CC=C[C@@H](c2ccccc2)N1C(=O)c1coc2c1C(=O)CCC2,-3.4,-5.5
CCCC(C(=O)N1CCCn2cncc2C1)n1cccc1 (stereo unspecified),-4.6,-4.8
COc1ccccc1C(=O)NC1(C(F)(F)F)C(=O)Nc2c1c(=O)[nH]c(=O)n2CC(C)C (stereo unspecified),-9.8,-16.9
O=C(CC1CSc2nccc(=O)n21)N1CCCC1 (stereo unspecified),-1.8,-3.4
Cc1cccc(-c2nc(C)cc(N3CCN(C(=O)Nc4ccccc4Br)CC3)n2)c1,15.3,13.6
CC1CCCCN1Cc1nc2c(c(=O)n(C)c(=O)n2C)n1Cc1ccc(Cl)cc1 (stereo unspecified),-5.0,-5.9
O=c1ccc(-c2cccs2)nn1CCNS(=O)(=O)c1ccccc1Cl,4.6,2.1
O=C(C[n+]1cccc(O)c1)NCc1ccc(Cl)cc1,1.4,-9.8
Cc1cc(C)c(NC(=O)CCn2cnc3c(cnn3C)c2=O)c(C)c1,4.8,11.9
COCc1c(Br)c(C)nc(OCC(=O)N/N=C\c2cccc(O)c2)c1C#N,-7.8,-9.4
CCOCCC(=O)N1CCN(Cc2ccc(-c3noc(-c4cccs4)n3)cc2)CC1,4.7,2.7
CNC(=O)CC1CCN(CCC(C)c2ccccc2)CC1 (stereo unspecified),-2.1,-5.1
O=C(Nc1cccc(OC(F)(F)C(F)F)c1)c1sc2cc3c(cc2c1Cl)OCO3,3.3,1.1
CCOC(=O)CNc1c(-c2cccc(O)c2)nc2cccc(C)n12,-4.4,-2.8
COc1ccc(OC)c(/C=N\NC(=O)CSc2nnc(-c3ccc(OC)c(OC)c3)n2-c2ccccc2)c1,-6.5,0.3
CCc1nc2ccc(C(=O)Nc3ccc(C(N)=O)cc3)cn2c1N(CCC(C)C)CCN(C)C,-4.2,-7.8
O=C(NC12CC3CC(CC(C3)C1)C2)c1cncn1-c1ccc(F)cc1,-21.3,-25.1
CCCCCN(C(=O)Nc1ccccc1C(F)(F)F)C(CC)c1nc2ccccc2c(=O)n1-c1ccc(Br)cc1 (stereo unspecified),18.2,23.7
C=CCCC(=O)N1CCN(Cc2cc(=O)c(OCc3ccc(C(C)(C)C)cc3)co2)CC1,-2.7,0.4
COc1ccc(CN2CCN(C(C)C)CC2)cc1OCC(O)CN1CCCCCCC1 (stereo unspecified),0.8,-3.7
CCCCN(c1ccccc1)S(=O)(=O)c1cn[nH]c1,7.1,1.4
O=C(NCCCCOc1ccccc1)N1CCCC1c1ccc2c(c1)OCCCO2 (stereo unspecified),6.9,12.7

# Further structures
SMILES,NPYLR7 ag,NPYLR7 ag max-min
Cc1ccc(Cc2nc(N3CCCN(C(=O)c4ccc(Cl)cc4Cl)CC3)c3cnn(-c4ccccc4)c3n2)cc1,-1.6,1.4
COc1cccc2sc(NNC(=O)c3ccc(S(=O)(=O)N4CCc5ccccc5C4)cc3)nc12,2.6,-1.3
O=c1c(-c2ccccc2Cl)[n+]([O-])c2ccccc2n1OCc1ccccc1F,-5.4,-5.4
O=C1c2ccccc2NC(c2ccc3c(c2)OCO3)N1Cc1ccco1 (stereo unspecified),-1.7,-2.5
